# Source: PubChem (National Center for Advancing Translational Sciences (NCATS))
# Vaccinia mCherry: vaccinia inhibition (mCherry reporter); Vaccinia virus mCherry reporter infection, fluorescence; about a quarter of the inactives have no number; Potency, µM (series often up to 36.5 µM), for the others: at the highest dose activity change, negative = inhibition, usual class: inhibitors; actives 0.63% (n = 310,000); AID 720579; active = well fitted inhibition curve with a large enough effect; inconclusive = small, poorly fitted or top-dose-only effect; inactive = no such curve, though single readings can be large or run the other way; tested in A549 cells; also: nearly all actives have a fitted effect of over 35% in size; inactives centre near -10
# Vaccinia Venus: vaccinia inhibition (Venus reporter); Vaccinia virus Venus reporter expression, fluorescence; actives 0.46% (n = 330,000); Potency, µM (titrated, usually from 36.5 µM), without a hit: at the top dose activity change, negative = inhibition, actives largely listed as inhibitors; active means well fitted inhibition curve with a large enough effect; inconclusive means small, poorly fitted or top-dose-only effect; inactive means no such curve, though single readings can be large or run the other way; tested in A549 cells; also: nearly all actives have a fitted effect of over 30% in size; inactives centre near -10
# * marks the source's active call; other numbers are inactive results; i = inactive; ? = inconclusive; · = not tested or not shown; & = joins results of further samples; [ ] = dose if it differs, or a comment. % is scaled to controls: 0 for no effect and ±100 for the full control effect; potency is read from the fitted curve at half-maximal effect.
# Values run as follows: Vaccinia mCherry	Vaccinia Venus
COC(=O)c1ccccc1NC(=O)COc1ccccc1
 : -15%	-12%
CC12CCC(C(N)=O)(C1Br)C2(C)C (stereo not given)
 : -14%	-15%
O=C(Nc1ccc(C(=O)N2CCCC2)cc1)C1CCC1
 : 2%	7%
CCCCN(CC)Cc1ccc(CNC(=O)Nc2ccc(OC)cc2OC)o1
 : ·	-6%
Cc1ccc(-c2nc3ncccc3o2)cc1NC(=O)CC(C)C
 : -5%	-6%
COc1ccc(C)cc1NC(=O)C(OC(=O)CNC(=O)c1cc(C)cc(C)c1)c1ccccc1 (stereo not given)
 : i	-9%
COc1ccc(S(=O)(=O)N2CCCCCC2)cc1NC(=O)Cc1ccc(OC)c(OC)c1
 : i	-5%
Cc1cc(C(=O)Cn2nc(C(=O)O)c3ccccc3c2=O)c(C)n1C1CC1
 : i	-8%
Fc1ccc(CSc2nncn2NC/C=C/c2ccccc2)cc1
 : ·	-11%
N#C/C(=C\c1ccc(O)c(O)c1)C(=O)N1CCc2ccccc21
 : -3%	-22%
COc1cccc(OCCn2cc(C=O)c3ccccc32)c1
 : -23%	-15%
Cn1cccc1CNC(=S)Nc1ccccc1Cl
 : -6%	-11%
Cc1ccccc1OCCC(=O)OCC(=O)NC1CCCCC1
 : -1%	-10%
O=C(Nc1ccc([N+](=O)[O-])c(NC(=O)c2cccnc2)c1)c1cccnc1
 : 11%	12%
Cc1ccc(S(=O)(=O)Nc2ccc3c(c2)CCC3)cc1C
 : -9%	-9%
O=[N+]([O-])c1cc(Cl)cc(/C=N/NC(=S)Nc2ccc(S(=O)(=O)N3CCOCC3)cc2)c1O
 : -3%	2%
COc1ccc(/C=N/NC(=O)c2cccc(OC(F)(F)C(F)F)c2)cc1O
 : -15%	-25%
CCOC(=O)c1c(C)oc2nc(C)nc(NCCCN3CCN(c4cccc(C)c4)C(C)C3)c12 (stereo not given)
 : -11%	-8%
COc1ccc(CNC(=O)COC(=O)Cc2ccsc2)cc1
 : -17%	-7%
CC(C)Sc1nnc(CNC(=O)C23CC4CC(CC(C4)C2)C3)n1C1CCCCC1
 : i	-6%
COc1ccc(N2CCN(C(=O)CN(c3cccc(Br)c3)S(C)(=O)=O)CC2)cc1
 : i	-5%
OCC1OC(n2cnc3c(N4CCCCC4)ncnc32)C(O)C1O (stereo not given)
 : i	-2%
CCCCN1C(=O)NC(NC(=O)C2CC2)(C(F)(F)F)C1=O (stereo not given)
 : -24%	-20%
Cc1ccc(S(=O)(=O)NCCc2nnc3ccc(SCc4cccnc4)nn23)cc1
 : ?	-13%
CCCSc1ccccc1C(=O)N1CCN(C(=O)c2ccco2)CC1
 : -12%	-11%
COc1ccc(C(=O)Nc2ccc(NC(=O)c3cc(OC)c(OC)c(OC)c3)cn2)cc1
 : -6%	4%
CCCc1ccc(S(=O)(=O)NCCc2ccncc2)cc1
 : -27%	-24%
Oc1cccc2cc3cccc(O)c3c(O)c12
 : -16%	-12%
O=C(CN1C(=O)COc2ccc(S(=O)(=O)N3CCCCCC3)cc21)Nc1cccc(Cl)c1
 : -16%	-14%
CCOC1=C2CN(S(=O)(=O)c3ccc(C)cc3)C(c3ccc(CC)cc3)CC2n2c(=O)n(-c3ccccc3)c(=O)n2C1 (stereo not given)
 : -21%	-12%
CCCc1cc(C(F)(F)F)c(C#N)c(=O)[nH]1
 : -16%	-11%
CCOC(=O)C(=CNc1cc(C)ccc1-n1cccc1)C(=O)OCC
 : -2%	-11%
COc1ccc(N(C)C(=S)Nc2ccc3nc(C)c(C)nc3c2)cc1
 : -3%	1%
CN(C)S(=O)(=O)c1ccc(C(=O)NC(=O)CSc2ccccc2)cc1
 : -16%	-9%
S=c1[nH]nc(-c2cccs2)n1/N=C/c1cn(-c2ccccc2)nc1-c1ccc(Cl)cc1
 : i	-10%
Cc1ccccc1OCc1ccc(-c2nc(C#N)c(N3CCN(c4ccccc4)CC3)o2)o1
 : -10%[7.34 µM]	-7%[7.34 µM]
CC(C)(C)c1ccc(CS(=O)CC(O)CO)cc1 (stereo not given)
 : -19%	-6%
CCc1cc(C(c2ccc(OC)c(OC)c2)N2CCOCC2)c(NC(=O)c2ccccc2)s1 (stereo not given)
 : -24%	-20%
CSc1cccc(NC(=O)Cn2cnc(S(=O)(=O)N3CCCC3)c2)c1
 : -4%	2%
COc1ccc(/C=N/n2cnc3c([nH]c4ccc(Br)cc43)c2=O)cc1CN1CCOCC1
 : ·	-5%
Clc1ccc(Cn2ccnc2)cn1
 : -1%	4%
O=C(Cc1ccccc1F)OCC(=O)N1CCN(C(=O)c2ccco2)CC1
 : i	-4%
Nc1ccc2nc(CCCCCCc3nc4ccc(N)cc4[nH]3)[nH]c2c1
 : -10%	-20%
COc1cc(C(=O)OCC(=O)Nc2ccc(SC(F)F)cc2)cc(OC)c1OC
 : -7%	-22%
c1ccc2c3c(c(CN4CCCC4)cc2c1)COC3
 : ?	0%
O=C(O)c1ccc(Cn2cnc3c(=S)nc[nH]c32)cc1
 : i	4%
Cc1cc(N2CCCC2)ccc1NC(=O)CN1C(=O)NC(C)(c2ccccc2)C1=O (stereo not given)
 : ?	-9%
CCOC(=O)c1sc2ncn(CC(=O)Nc3ccc(C)cc3Br)c(=O)c2c1C
 : -22%	-23%
COc1ccc(-c2ccc(S(=O)(=O)NCC3CCCO3)cc2)cc1 (stereo not given)
 : -14%	-13%
O=C(c1cccs1)N1CCN(c2nc3ccc([N+](=O)[O-])cc3s2)CC1
 : -14%	-2%
COc1ccc(C(=O)Nc2ncc3c(n2)CC(c2ccco2)CC3=O)cc1 (stereo not given)
 : -18%[1.46 µM]	?
O=C(Nc1ccc(Cl)c(Cl)c1)Nc1ccccc1C(=O)O
 : -18%	-1%
CCc1ccc(CN(C)CC(=O)Nc2sccc2C#N)cc1
 : -26%	-21%
NC(=O)c1ccccc1NC(=O)/C=C/c1ccccc1
 : 0%	-9%
CC(C)(C)NC(=O)Nc1ccc(Cn2cc(C(F)(F)F)ccc2=O)cc1
 : 2%	0%
CC(C)c1ccc2oc(-c3ccc(NC(=O)c4ncn[nH]4)cc3)nc2c1
 : -17%	7%
COC(=O)c1ccc(CSc2nnc(Nc3ccccc3OC)s2)o1
 : -10%	-26%
Nc1nnc(SCC(=O)Nc2ccc(N3CCOCC3)cc2)s1
 : -13%	-2%
CN(C)c1cccc(C(=O)NCC2Cc3cccc(-c4cncnc4)c3O2)c1 (stereo not given)
 : -13%	-4%
CCOC(=O)N1CCN(CC(O)COc2ccccc2C(C)CC)CC1 (stereo not given)
 : ·	-16%

# Four entries drawn at random from the list so far:
# Values run as follows: Vaccinia mCherry	Vaccinia Venus
O=C(c1cccs1)N1CCN(c2nc3ccc([N+](=O)[O-])cc3s2)CC1
 : -14%	-2%
CCOC(=O)c1sc2ncn(CC(=O)Nc3ccc(C)cc3Br)c(=O)c2c1C
 : -22%	-23%
COc1ccc(C(=O)Nc2ncc3c(n2)CC(c2ccco2)CC3=O)cc1 (stereo not given)
 : -18%[1.46 µM]	?
COc1ccc(-c2ccc(S(=O)(=O)NCC3CCCO3)cc2)cc1 (stereo not given)
 : -14%	-13%

# Additional results follow:
# Values run as follows: Vaccinia mCherry	Vaccinia Venus
Cc1ccc(NC(=O)CSCn2nnc3c(=O)[nH]c(Cc4ccc(F)cc4)nc32)c(C)c1
 : -4%	-7%
CCOc1cc(/C=N/OC(C)=O)ccc1OCc1ccccc1
 : -10%	-7%
Cc1ccc(-n2c(-c3ccccc3)n[nH]c2=S)cc1
 : -14%	-10%
CCC(=O)Nc1ccc2nc(C)n(Cc3ccccc3Cl)c(=O)c2c1
 : -23%	-13%
CCN(CCn1cccn1)C(=O)CC1C(=O)NCCN1Cc1ccc(F)c(F)c1 (stereo not given)
 : -5%	0%
CCCn1c(=O)c2ccccc2n2c(SCC(=O)c3ccc(CC)cc3)nnc12
 : ·	-1%
Cc1ccc(C(=O)NC(C)C(c2cccs2)N2CCOCC2)cc1C (stereo not given)
 : i	-3%
Cc1cccc(Cn2c(SCc3ccc(C(=O)NC4CCCC4)cc3)nc3cccnc32)c1
 : -11%	-16%
COc1cc2[nH]c(=O)n(Cc3ccc(C(=O)NCc4ccc(C)cc4)cc3)c(=O)c2cc1OC
 : -20%	-7%
Cc1cccc(C(=O)N2CCN(c3ccc([N+](=O)[O-])c(N4CCOCC4)c3)CC2)c1
 : ?	-25%
O=C(NCc1ccccc1)c1cccn1-c1nnc(N2CCCCC2)s1
 : -8%	-8%
C=CCNC(=O)/C(=C\C=C\c1ccccc1)NC(=O)c1ccc(OCCCC)cc1
 : ·	?
CC(C)C(NC(=O)OCc1ccccc1)C(=O)NC(Cc1ccc(O)cc1)C(=O)O (stereo not given)
 : -9%	-11%
Cc1ccc(S(=O)(=O)N(C)c2ccccc2)cc1
 : -24%	-6%
CC(C)CNC(=O)CC(c1ccccc1)c1c(O)ccc2ccccc12 (stereo not given)
 : -27%	?
CN(C)c1ccc(/C=C/N2C=CCc3c2ccc2ccccc32)cc1
 : i	·
COc1ccccc1-c1ccc2c(c1)C(C)(Cc1cccc(F)c1)C(=O)N2 (stereo not given)
 : 0%	-15%
CC(=O)c1cccc(Nc2cc(C)nc3ccccc23)c1
 : -21%	-24%
O=C(COC(=O)c1cc[n+]([O-])cc1)Nc1ccccc1Cl
 : -1%	-3%
COc1cccc(C(NC(C)=O)c2nc(-c3cnc4ccccc4c3)cs2)c1 (stereo not given)
 : 18%	-18%
Cc1ccc(C(=O)NC(=S)Nc2ccc(NC(=O)c3cccs3)cc2)cc1[N+](=O)[O-]
 : -10%	-19%
COCCNc1nnc(SC(C)C(=O)Nc2c(C)n(C)n(-c3ccccc3)c2=O)s1 (stereo not given)
 : -6%	-3%
Cc1ccc(NC(=O)CSCCc2ccccn2)nc1
 : -14%	-15%
Cc1ccccc1NC(=O)CN1C(=O)COc2ccc(S(=O)(=O)N3CCCC3)cc21
 : -3%	-13%
CN1C(=O)/C(=C\c2ccncc2)SC1=Nc1ccccc1
 : ?	-22%
Cn1c(=O)cc(OCC(=O)N2CCN(c3ccccc3F)CC2)c2ccccc21
 : -5%	-3%
Cc1ccc(NS(=O)(=O)c2ccc3c(c2)oc(=O)n3C)cc1C
 : -26%	-22%
N#CC1=C2SCN(c3ccccc3)CN2C(=O)CC1c1ccccc1Cl (stereo not given)
 : -5%&-30%	-17%&-8%
COc1ccc(Cl)cc1NC(=O)CNCC(c1ccccc1)N(C)C (stereo not given)
 : -15%	-14%
Cn1cccc1C(=O)OCC(=O)NCCCc1ccccc1
 : -13%	-11%
CCc1cc(C(c2cccc(OC)c2)N2CCOCC2)c(NC(=O)c2ccccc2)s1 (stereo not given)
 : -9%[1.46 µM]	-23%
Cc1nnc(NC(=O)CSc2nnc(Cc3cccn3C)n2-c2cccc(C(F)(F)F)c2)s1
 : i	-14%
Cc1cc(C)cc(Oc2nc3c(C)cccn3c(=O)c2/C=C(\C#N)c2nc3ccccc3s2)c1
 : -12%	-20%
CC(C)NC(=O)c1ccc2c(c1)nc1n2CCCCC1
 : -10%	-7%
COC(=O)c1c(-c2ccc(Cl)cc2)noc1N1CCN(c2ccc(OC)cc2)CC1
 : -10%	-12%
Cc1cccc(Nc2ccc(C(=O)N3CCOCC3)cn2)c1
 : i	-7%
N#CCCN1CCn2c1nc1ccccc12
 : -14%	-1%
COc1cc(NS(=O)(=O)c2ccc(NC(C)=O)cc2)nc(OC)n1
 : i	-14%
C=C(C)CC1Nc2ccccc2NC1CC(=C)C (stereo not given)
 : -6%	6%
COc1ccc(CCNC(=O)Cn2c(=O)n(-c3ccccc3)c(=O)c3c(C)c(C)sc32)cc1OC
 : -10%	-6%
COc1cc(CN2CCN(C(O)(c3ccccc3)c3ccccc3)CC2)cc(OC)c1OC
 : i	-16%
O=C(CSc1ccc2nnc(-c3cccnc3)n2n1)NCc1ccc2c(c1)OCO2
 : -24%	-3%
CCCNC(=O)c1ccc2c(=O)c(O)c(-c3ccsc3)[nH]c2c1
 : ?	?
O=[N+]([O-])c1cc(S(=O)(=O)C(F)(F)F)ccc1Sc1nc2ccccc2s1
 : ·	-9%
CCN(CC)c1cc(C)c2cc(NC(=O)/C=C/c3ccccc3Cl)ccc2n1
 : -9%	-16%
COc1ccc(CN2C(=O)C(CC(=O)NCc3cccc4ccccc34)CC(C(=O)N(C)C)=C2C)cc1 (stereo not given)
 : -24%	-7%
CCc1ccc(NC(=O)CCS(=O)(=O)c2ccc3c(c2)oc(=O)n3C)cc1
 : -1%	1%
COc1ccc(S(=O)(=O)N2CCCC2)cc1C(C)C
 : -8%	-10%
C[C@@H]1CN([C@@H](C)CO)C(=O)CCCn2nncc2CO[C@@H]1CN(C)S(=O)(=O)c1cccc(F)c1
 : 5%	-5%
CCOc1ccc(CNC(=O)C2CCN(S(=O)(=O)c3ccc4c(ccn4C)c3)CC2)cc1
 : -16%	-11%
O=C(Oc1ccc2c3c(c(=O)oc2c1)CCCC3)c1ccco1
 : -14%	-14%
Cc1cccc(NC(=O)C2CCCN(S(=O)(=O)c3c(C)[nH]c(=O)[nH]c3=O)C2)c1C (stereo not given)
 : -1%	-1%
Cc1ccccc1NC(=O)CSc1nc(N)c2c3c(sc2n1)CSC(C)(C)C3
 : -21%	?
Cc1ccc(-c2nc3cccnc3s2)cc1NC(=O)Cc1ccccc1
 : 11%	4%
COc1cc(Cl)c(C)cc1NC(=O)Cn1c2ncccc2c(=O)n1-c1ccccc1
 : -6%[7.34 µM]	-3%[7.34 µM]
CCc1cccc(C)c1Nc1c(-c2ccc(N3CCOCC3)cc2)nc2ncccn12
 : -7%	-6%
